# Screens (PubChem BioAssay)
# YB-1 expr inh = YB-1 expression inhibition; U2OS, qRT-PCR YB-1 vs CDIP delta delta Cp, 16 h; active compounds read high; zero = DMSO, each unit about twofold; delta delta Cp (YB-1 minus CDIP) (no concentration beside the values); 30,000 tested, 0.37% active;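 active means delta delta Cp rounded down to an integer at or above 3, about 3 SD of DMSO wells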;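 further: higher means less YB-1 transcript or more CDIP transcript relative to DMSO; stock transfer was 100 nL into about 100 µL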
# Shh pathway inh = blocks Sonic Hedgehog signaling; 22,000 tested, 2.1% active; Shh-LIGHT2 Gli-luciferase reporter, 30 h; inhibition, % (test concentration not listed); AID 2313;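 active means replicate mean of 65% or more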;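 further: pathway switched on by Shh-conditioned medium diluted 1 in 25 in low serum; 100 nL library stock added to about 40 µL; 0% = median of neutral wells and 100% = positive control level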
# MITF inhib = inhibitors of MITF; TRPM1 promoter luciferase, luminescence, 24 h; inhibition, % (test concentration not listed); 37,000 tested, 0.28% active; AID 2240;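 active means most replicates at 85% or more, or half of them and the mean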;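 further: human melanocyte line stably carrying TRPM1 promoter luciferase reporter; 0% = vehicle wells and 100% = a positive control; the first replicate is given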
# PD-1 reversal = reversal of PD-1 mediated T-cell inhibition. primary human CD4 T cells, PD-L1 beads, CellTiter-Glo 96 h. activation, % (concentration not given with the values). 29,000 tested, under 10 active;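 active means replicate mean of 50% or more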;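 further: 0% = median vehicle wells and 100% = positive control; 100 nL library stock added to about 50 µL; numbers are from one replicate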
# Numbers without * were called inactive; nt = no result given.
no. | SMILES | YB-1 expr inh | Shh pathway inh | MITF inhib | PD-1 reversal
1 | Cc1ccc(S(=O)(=O)N(C)C[C@@H]2Oc3ccc(NC(=O)Nc4ccc5c(c4)OCO5)cc3CC(=O)N([C@@H](C)CO)C[C@@H]2C)cc1 | 0.54 | -58 | 26 | nt
2 | C[C@@H]1CN([C@@H](C)CO)C(=O)c2cc(NC(=O)CCCCCC(=O)Nc3ccccc3N)ccc2O[C@@H]1CN(C)Cc1ccc2c(c1)OCO2 | -0.087 | nt | 29 | -1.3
3 | COc1ccc(NC(=O)Nc2ccc3c(c2)CC(=O)N([C@H](C)CO)C[C@H](C)[C@H](CN(C)Cc2ccc4c(c2)OCO4)O3)cc1 | 0.069 | 1 | 0 | 2.2
4 | COc1ccc(NC(=O)Nc2cccc3c2O[C@H](CN(C)Cc2ccc(C(=O)Nc4ccccc4N)cc2)[C@H](C)CN([C@@H](C)CO)C3=O)cc1 | 0.1 | nt | 9 | -0.2
5 | COc1ccc(OC)c(S(=O)(=O)N2CCC(C(=O)Nc3ccc(Cl)cc3)CC2)c1 | nt | nt | 19 | -1.4
6 | S=C1NN=C(c2ccccc2)C(c2ccccc2)N1 (stereo unspecified) | -0.62 | nt | 44 | -2.2
7 | COc1ccc(S(=O)(=O)Nc2ccc3c(c2)CC(=O)N([C@@H](C)CO)C[C@H](C)[C@@H](CN(C)C(=O)NC2CCCCC2)O3)cc1 | 0.15 | 32 | 11 | 0.5
8 | Cc1oc2c(c1C(=O)NCCCn1ccnc1)C(=O)c1ccccc1C2=O | 0.22 | 110* | 66 | -5.4
9 | COc1ccc(S(=O)(=O)Nc2ccc3c(c2)C(=O)N([C@@H](C)CO)C[C@H](C)[C@@H](CN(C)Cc2ccc(C(F)(F)F)cc2)O3)cc1 | -0.27 | nt | 10 | nt
10 | C[C@H]1CN([C@@H](C)CO)C(=O)c2cc(NC(=O)c3ccncc3)ccc2O[C@H]1CN(C)Cc1ccc(C(=O)O)cc1 | -0.0074 | -17 | 4 | -1.2
11 | COc1cc(-n2nnnc2SCC(=O)Nc2cccc(Cl)c2Cl)c(OC)cc1Cl | nt | nt | 43 | -0.8
12 | C[C@H](CO)N1C[C@H](C)[C@H](CN(C)Cc2ccc3c(c2)OCO3)Oc2ccc(NC(=O)C3CCCCC3)cc2C1=O | -0.31 | nt | 0 | 0.3
13 | C[C@@H]1CN([C@@H](C)CO)C(=O)c2cccc(NC(=O)c3nc4ccccc4s3)c2O[C@H]1CN(C)Cc1ccc(-c2ccccc2)cc1 | 0.33 | -5 | 28 | nt
14 | CCCN(C#N)c1nc(NC(C)C)nc(NC(C)C)n1 | -0.23 | 8 | 23 | -4.1
15 | C[C@@H]1CN([C@H](C)CO)C(=O)Cc2cc(NC(=O)Cn3cnnn3)ccc2O[C@H]1CN(C)CC1CCCCC1 | 0.12 | -29 | -3 | 0.3
16 | C[C@@H]1CN([C@H](C)CO)C(=O)c2cccc(NC(=O)c3ccc(-c4nccs4)cc3)c2O[C@@H]1CN(C)C(=O)NC1CCCCC1 | -0.082 | 10 | -11 | -1.0
17 | C[C@H]1CN([C@@H](C)CO)C(=O)c2cc(NC(=O)Nc3ccccc3)ccc2O[C@@H]1CN(C)Cc1ccc(Cl)c(Cl)c1 | -0.74 | nt | -2 | 1.0
18 | C[C@@H]1CN([C@@H](C)CO)C(=O)Cc2cc(NC(=O)Nc3ccc(F)cc3)ccc2O[C@@H]1CN(C)Cc1ccc(C(F)(F)F)cc1 | -0.024 | 22 | 12 | -6.0
19 | CC(C)NC(=O)Nc1ccc2c(c1)C(=O)N([C@H](C)CO)C[C@@H](C)[C@@H](CN(C)S(=O)(=O)c1cccs1)O2 | -0.096 | nt | -14 | 2.1
20 | C[C@H]1CN([C@@H](C)CO)C(=O)c2cc(NS(=O)(=O)c3ccc(F)cc3)ccc2O[C@H]1CN(C)Cc1ccc(-c2ccccc2)cc1 | -0.12 | nt | 10 | -1.8
21 | COc1ccc(NC(=O)N(C)C[C@H]2Oc3c(NS(=O)(=O)c4ccccc4)cccc3C(=O)N([C@@H](C)CO)C[C@H]2C)cc1 | 0.14 | 7 | -3 | -0.4
22 | O=[N+]([O-])c1cccc2c(Br)[nH]nc12 | 0.13 | -10 | 9 | 0.4
23 | C[C@@H]1CN([C@@H](C)CO)C(=O)c2cc(NC(=O)Nc3cccc4ccccc34)ccc2O[C@H]1CN(C)Cc1ccccc1 | -0.018 | 23 | 1 | 0.0
24 | C[C@H]1CN([C@@H](C)CO)C(=O)c2cc(NS(=O)(=O)c3cccs3)ccc2O[C@H]1CN(C)Cc1ccc(Oc2ccccc2)cc1 | -0.082 | 47 | 20 | 0.0
25 | C[C@@H]1CN([C@H](C)CO)C(=O)c2cccc(NC(=O)C3CC3)c2O[C@H]1CN(C)Cc1ccncc1 | -0.38 | 0 | -11 | -0.8
26 | C[C@@H]1CN([C@@H](C)CO)C(=O)c2cccc(NC(=O)Nc3ccc(F)cc3)c2O[C@@H]1CN(C)CC1CC1 | -0.36 | -34 | -17 | -2.0
27 | C[C@@H]1CN([C@@H](C)CO)C(=O)c2cccc(NS(=O)(=O)c3ccccc3)c2O[C@H]1CN(C)C(=O)Nc1ccc(F)cc1 | 0.15 | -7 | -7 | nt
28 | C=C1CCC2[C@](C)(CO)[C@H](O)CC[C@@]2(C)[C@@H]1C/C=C1/C(=O)OC[C@H]1O (stereo partly specified) | -0.044 | 93* | 28 | -48
29 | C[C@@H]1CN([C@H](C)CO)C(=O)c2cc(NC(=O)C3CC3)ccc2O[C@@H]1CN(C)CC1CCCCC1 | -0.17 | nt | -5 | -0.4
30 | C[C@@H]1CN([C@H](C)CO)C(=O)Cc2cc(NC(=O)Nc3ccccc3)ccc2O[C@@H]1CN(C)C(=O)Nc1cccc2ccccc12 | 0.21 | nt | 14 | nt

# The list goes on:
nr	SMILES	YB-1 expr inh	Shh pathway inh	MITF inhib	PD-1 reversal
31	CC(=O)c1ccccc1OCC(O)Cn1cnc2ccccc21 (stereo unspecified)	nt	nt	-57	1.1
32	Cc1ccccc1Cn1cc(NC(=O)C2CC(c3ccc(Cl)cc3)=NO2)cn1 (stereo unspecified)	nt	nt	23	1.7
33	C[C@@H]1CN([C@H](C)CO)C(=O)c2cc(NS(=O)(=O)c3ccc(Cl)cc3)ccc2O[C@H]1CN(C)Cc1ccc(Oc2ccccc2)cc1	-0.028	23	3	0.1
34	Cc1noc(C)c1NC(=O)Nc1ccc2c(c1)CC(=O)N([C@@H](C)CO)C[C@H](C)[C@H](CN(C)S(=O)(=O)c1ccccc1)O2	0.082	-6	-7	nt
35	COc1ccc(NC(=O)Nc2cccc3c2O[C@H](CN(C)S(C)(=O)=O)[C@@H](C)CN([C@H](C)CO)C3=O)cc1	-0.42	-45	-8	0.7
36	Cc1noc(C)c1NC(=O)N(C)C[C@H]1Oc2ccc(NC(=O)CCC(F)(F)F)cc2CC(=O)N([C@@H](C)CO)C[C@@H]1C	0.11	0	-3	0.8
37	Cc1ccc(S(=O)(=O)Nc2ccc3c(c2)C(=O)N([C@H](C)CO)C[C@H](C)[C@@H](CN(C)C(=O)NC2CCCCC2)O3)cc1	0.05	nt	-1	0.3
38	Cc1cc(C)nc(SCc2nc3ccccc3c(=O)n2-c2ccc(C(F)(F)F)cc2)n1	0.18	nt	-10	-0.3
39	C[C@H](CO)N1C[C@H](C)[C@H](CN(C)CC2CCCCC2)Oc2ccc(NC(=O)C3CC3)cc2CC1=O	0.032	-9	-2	-2.3
40	CC(C)(OC(=O)c1ccccc1)[C@@H]1Cc2cc3ccc(=O)oc3cc2O1	2.5	22	7	nt
41	C[C@@H]1CN([C@@H](C)CO)C(=O)c2cccc(NC(=O)NC3CCCCC3)c2O[C@@H]1CN(C)CC1CCCCC1	0.54	-35	-9	-0.5
42	Cc1ncsc1CCSc1n[nH]c(=O)n1-c1ccccc1	nt	nt	-10	1.0
43	O=C(CCN1C(=O)c2ccccc2C1=O)Oc1c(-c2ccccc2)oc2ccccc2c1=O	nt	nt	-54	-3.2
44	C[C@@H]1CCCCO[C@@H](CN(C)C(=O)C2CCCCC2)[C@@H](C)CN([C@H](C)CO)C(=O)c2cc(NS(C)(=O)=O)ccc2O1	0.42	-14	9	-1.0
45	CNC[C@@H]1Oc2ccc(NC(=O)Cc3ccccc3)cc2CC(=O)N([C@H](C)CO)C[C@H]1C	-0.089	-20	-6	nt
46	C[C@H]1CN([C@@H](C)CO)C(=O)c2cccc(NC(=O)c3cnccn3)c2O[C@H]1CN(C)S(=O)(=O)c1cccs1	-0.3	15	-30	-0.5
47	C[C@@H]1CCCCO[C@H](CN(C)C(=O)Nc2ccc(F)cc2)[C@@H](C)CN([C@H](C)CO)C(=O)c2cc(NC(=O)Nc3ccc(F)cc3)ccc2O1	-0.028	8	2	-1.0
48	Cc1noc(C)c1S(=O)(=O)Nc1ccc2c(c1)C(=O)N([C@H](C)CO)C[C@H](C)[C@@H](CN(C)C(=O)Nc1ccccc1)O2	0.014	-11	0	nt
49	CC(C)(CSc1nnc(Nc2ccccc2)s1)NS(=O)(=O)c1ccc(Cl)cc1	nt	nt	45	0.1
50	CC(Nc1nc2ccccc2n1C)c1cc(Cl)ccc1O (stereo unspecified)	nt	nt	-1	-2.8
51	C[C@H](CO)N1C[C@H](C)[C@H](CN(C)C(=O)NC2CCCCC2)Oc2ccc(NC(=O)C3CC3)cc2CC1=O	0.3	-14	-11	0.3
52	COc1ccc(S(=O)(=O)N(C)C[C@H]2Oc3ccc(NC(=O)Nc4cccc5ccccc45)cc3CC(=O)N([C@H](C)CO)C[C@H]2C)cc1	0.16	-10	17	-1.1
53	Cc1cc2nc(-c3ccc(NC(=O)COc4ccccc4[N+](=O)[O-])cc3)oc2cc1C	nt	nt	-20	1.8
54	Cc1ccccc1NC(=O)CSc1nc(N2CCCCC2)nc(N2CCCCC2)n1	nt	nt	23	-2.5
55	COc1ccc(NC(=O)c2ccco2)cc1NC(=S)NC(=O)c1cc2ccccc2o1	nt	nt	33	-4.6
56	CS(=O)(=O)N(CC(=O)Nc1ccc(F)cc1)c1ccccc1Br	nt	nt	-7	1.9
57	O=C1C2=C(NC(=S)NC2c2ccccc2)c2ccccc21 (stereo unspecified)	-0.18	16	60	-11
58	C[C@H]1CN([C@@H](C)CO)C(=O)c2cc(NC(=O)NC3CCCCC3)ccc2O[C@H]1CN(C)S(=O)(=O)c1cn(C)cn1	0.26	28	-8	-0.4
59	Cc1ccc(S(=O)(=O)N(C)C[C@@H]2Oc3ccc(NC(=O)Nc4cccc5ccccc45)cc3C(=O)N([C@@H](C)CO)C[C@@H]2C)cc1	0.1	-20	-8	-0.5
60	Cc1ccc2nc(-c3ccc(NC(=O)Cn4nc([N+](=O)[O-])c(Cl)c4C)cc3)sc2c1	nt	nt	19	1.6
61	OCCCNc1nc(-c2ccccc2Cl)c2cc(Br)ccc2n1	nt	nt	-1	-4.2
62	O=C(c1ccco1)N1CCN(Cc2cccnc2)CC1	0.032	nt	16	-0.7
63	C[C@@H]1CN([C@@H](C)CO)C(=O)c2cccc(NC(=O)c3ccc(-c4nccs4)cc3)c2O[C@@H]1CN(C)S(=O)(=O)c1cccs1	0.06	55	49	0.0
64	CC(C)(C)c1ccc(NC(=S)NCc2cccnc2)cc1	0.11	-30	-10	0.1
65	C[C@@H]1CN([C@H](C)CO)C(=O)c2cc(NC(=O)Cn3cnnn3)ccc2O[C@@H]1CN(C)C(=O)Nc1ccc(C(F)(F)F)cc1	0.2	-77	-11	nt
66	Cc1ccc(C)c(NC(=O)CN(c2ccc(F)c(Cl)c2)S(C)(=O)=O)c1	nt	nt	8	-0.2
67	COc1ccc(S(=O)(=O)Nc2cccc3c2O[C@@H](CN(C)S(=O)(=O)c2cn(C)cn2)[C@@H](C)CN([C@@H](C)CO)C3=O)cc1	0.17	-44	-9	0.6
68	C[C@@H]1CN([C@H](C)CO)C(=O)c2cc(N(C)C)ccc2O[C@@H]1CN(C)S(=O)(=O)c1ccc(Cl)cc1	-0.28	1	-7	nt
69	C[C@@H]1CN([C@H](C)CO)C(=O)Cc2cc(NS(=O)(=O)c3cn(C)cn3)ccc2O[C@H]1CN(C)Cc1ccc(C(=O)Nc2ccccc2N)cc1	-0.18	nt	-23	-2.0
70	Cc1ccc(S(=O)(=O)Nc2ccc3c(c2)CC(=O)N([C@@H](C)CO)C[C@@H](C)[C@@H](CN(C)C)O3)cc1	-0.0053	24	-8	-0.2

# Reformatted: four of the compounds above.
61	OCCCNc1nc(-c2ccccc2Cl)c2cc(Br)ccc2n1
  YB-1 expr inh: nt	Shh pathway inh: nt	MITF inhib: -1	PD-1 reversal: -4.2

65	C[C@@H]1CN([C@H](C)CO)C(=O)c2cc(NC(=O)Cn3cnnn3)ccc2O[C@@H]1CN(C)C(=O)Nc1ccc(C(F)(F)F)cc1
  YB-1 expr inh: 0.2	Shh pathway inh: -77	MITF inhib: -11	PD-1 reversal: nt

57	O=C1C2=C(NC(=S)NC2c2ccccc2)c2ccccc21 (stereo unspecified)
  YB-1 expr inh: -0.18	Shh pathway inh: 16	MITF inhib: 60	PD-1 reversal: -11

70	Cc1ccc(S(=O)(=O)Nc2ccc3c(c2)CC(=O)N([C@@H](C)CO)C[C@@H](C)[C@@H](CN(C)C)O3)cc1
  YB-1 expr inh: -0.0053	Shh pathway inh: 24	MITF inhib: -8	PD-1 reversal: -0.2

# The list is partial; count on the stated rates, not on these rows.
